Bioassay records (PubChem)
FGF22 binding: shifts melting point of recombinant human FGF22; Q9HCT0; recombinant FGF22 thermal shift, SYPRO orange fluorescence; percent of sucrose octasulfate shift, DMSO zero; calls only at 9.99 µM; hit rate 1.5% among 340,000; AID 651658;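 active = melting point raised past a set limit in the mean and every replicate; three in four hits are not shown here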
Target sequence (Q9HCT0 whole entry, looked up): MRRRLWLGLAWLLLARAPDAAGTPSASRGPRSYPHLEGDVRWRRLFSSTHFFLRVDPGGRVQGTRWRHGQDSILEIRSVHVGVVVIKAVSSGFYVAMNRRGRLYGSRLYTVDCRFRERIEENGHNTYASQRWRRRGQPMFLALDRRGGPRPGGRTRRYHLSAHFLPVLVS
UCH37 inh: inhibitors of human deubiquitinating enzyme UCH37; Q9Y5K5; purified proteasome/UCH37, Ub-AMC cleavage fluorescence; inhibition, % (test concentration not listed); hit rate 0.33% among 330,000; AID 588478;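 active = mean of two replicates above 20%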;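 also: 0% = compound-free wells with enzyme and 100% = wells lacking proteasome; stock transfer was 100 nL into about 20 µL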
Target sequence (Q9Y5K5 whole entry, looked up): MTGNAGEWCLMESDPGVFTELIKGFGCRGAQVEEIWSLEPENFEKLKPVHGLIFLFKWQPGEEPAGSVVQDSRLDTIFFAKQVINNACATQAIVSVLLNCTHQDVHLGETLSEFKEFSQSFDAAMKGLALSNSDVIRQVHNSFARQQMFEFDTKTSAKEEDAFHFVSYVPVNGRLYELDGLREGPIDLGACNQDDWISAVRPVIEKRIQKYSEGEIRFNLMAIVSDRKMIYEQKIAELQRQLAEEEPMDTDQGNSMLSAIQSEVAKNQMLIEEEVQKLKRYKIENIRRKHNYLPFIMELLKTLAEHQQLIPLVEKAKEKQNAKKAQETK
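Test system – human UCH37 enzyme supplied as purified proteasome complex · Incubation – 30 min preincubation with enzyme, 25 min cleavage at room temperature · Detection – AMC fluorescence from Ub-AMC cleavage, excitation 355 nm, emission 460 nm · Benchmarks – no-proteasome wells (full inhibition) and compound-free wells (no inhibition)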
B2AR ag: agonists of human beta-2 adrenergic receptor inducing internalization; Am2.2-beta2AR cells, FAP receptor internalization, flow cytometry; reference of the scale not given here; response, % (no concentration beside the values); hit rate 0.43% among 340,000;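 active = response above a set limit, near 3 SD of response in nonfluorescent compounds, cut at about 42% in these data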;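 also: stock transfer was 100 nL into about 11 µL; a reference agonist was the positive control; negative values mostly stem from fluorescent compounds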
ALR inh: inhibitors of human sulfhydryl oxidase ALR | P55789 | purified ALR, DTT oxidation, H2O2 HRP-luminol luminescence | inhibition, % (test concentration not listed) | hit rate 3.8% among 290,000 | AID 485317;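 active = mean and each replicate at 75% or more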;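 also: stock transfer was 7.5 nL into about 7.5 µL; 0% = neutral wells and 100% = wells with inactivated enzyme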
E coli growth: E. coli growth inhibition; Escherichia coli growth, OD600, 23 h; hits give low values; OD600 absorbance (no concentration beside the values); hit rate 0.21% among 330,000; AID 1053175;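 active = OD600 absorbance below the run mean of sample wells minus 3.6 SD, in any replicate, cut at about 0.56 in these data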;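 also: stock transfer was 300 nL into about 60 µL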
LANA-H2B inh: blocks KSHV LANA binding to histone H2A/H2B | cell-free LANA-H2A/H2B peptide, fluorescence polarization | inhibition, % (no concentration beside the values) | hit rate 0.6% among 320,000; in the data active = inhibition mostly above about 10%, no sharp cut-off; inactive = mostly below about 6.7%;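 also: stock transfer was 7.5 nL into about 10 µL; 0% = median of vehicle wells and 100% = median of positive control wells; one replicate is shown; the record names a cut of 25% in any replicate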
HNF4A DNA FP: change in binding of human HNF4 alpha to DNA. HNF4a-FITC DNA binding, fluorescence polarization, 1 h. P41235. hit rate 0.3% among 360,000. activity change, % at 10 µM; in the data active = activity change above about 30%, passing the limit was not always enough;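 also: controls were the assay level and a saturating level of protein; the project sought stronger binding though the title names inhibitors; some compounds called inactive have numbers as strong as hits; positive values seem to mean higher polarization but the record does not say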
Target sequence (P41235 whole entry, looked up): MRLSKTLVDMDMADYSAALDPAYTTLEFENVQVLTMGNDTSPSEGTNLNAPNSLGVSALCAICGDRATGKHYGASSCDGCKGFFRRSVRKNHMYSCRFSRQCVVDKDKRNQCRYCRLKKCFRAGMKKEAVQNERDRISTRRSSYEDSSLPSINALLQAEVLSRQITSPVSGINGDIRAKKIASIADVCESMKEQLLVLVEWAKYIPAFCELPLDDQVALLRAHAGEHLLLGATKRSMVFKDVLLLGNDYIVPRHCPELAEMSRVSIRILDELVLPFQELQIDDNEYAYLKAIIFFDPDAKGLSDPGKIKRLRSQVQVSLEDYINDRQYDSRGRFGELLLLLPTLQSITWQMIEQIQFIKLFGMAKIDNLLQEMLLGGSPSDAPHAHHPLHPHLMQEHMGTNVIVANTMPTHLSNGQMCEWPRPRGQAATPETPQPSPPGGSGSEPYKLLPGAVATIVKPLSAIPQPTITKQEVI
Starred values were filed as active, the others as inactive; i = inactive; . = not tested or not shown. A portion of the library (hit frequency here may not be typical).

SMILES	FGF22 binding	UCH37 inh	B2AR ag	ALR inh	E coli growth	LANA-H2B inh	HNF4A DNA FP
CCCOc1ccccc1N/C(=N\S(=O)(=O)c1ccc(C)cc1)Nc1nc(C)cc(C)n1	.	0.4	-8	-15	.	0.8	2.6
O=C(Nc1ccccn1)c1cc(-c2cccc(Cl)c2)nc2ccccc12	i	1.3	1	-10	0.75	-0.5	-2.6
COc1ccc(CCNc2ccc(S(=O)(=O)N3CCCC3)cc2[N+](=O)[O-])cc1	.	-0.2	0	1	.	-0.8	-3.4
COc1ccc(Nc2nc(-c3cccc(OC)c3O)nc3ccccc23)cc1	i	2.4	18	-8	0.69	-0.1	3.6
COc1ccc(-c2noc(CN(C)C(=O)c3ccc4c(c3)OCO4)n2)cc1	i	-1.2	-1	-5	0.65	-0.2	0.8
O=C(NCCO)Nc1ccc2nsnc2c1	i	-285	5	-29	0.69	-2.7	-0.8
O=C(c1cc(-c2ccc(O)cc2)on1)N1CCCc2ccccc21	i	4.4	-17	99*	0.8	5.0	-4.6
CC(c1ccco1)N(C(=O)c1ccc(Cl)c([N+](=O)[O-])c1)c1ccccn1 (centres undefined)	i	5.4	1	.	0.68	0.9	2.5
C=CCN1CN(S(=O)(=O)c2cccc(Cl)c2)c2nc3ccccc3nc21	i	-9.2	3	-10	0.72	9.7	9.1
Cc1ccccc1CN(c1ccc(C(=O)Nc2ccccc2C(=O)N2CCCC2)cc1)S(C)(=O)=O	.	1.7	-4	-4	0.64	3.8	-5.5
CC(=O)Nc1ccc2ccc3cccc4ccc1c2c34	.	-180	7	-3	0.76	-2.9	0.8
COc1ccc(S(=O)(=O)NCC2CCC(C(=O)NCCC(C)C)CC2)cc1 (centres undefined)	.	3.0	-8	2	0.7	2.8	-1.9
Cc1c2cnn(CC(=O)NCc3ccccn3)c(=O)c2c(C)n1Cc1ccc(Cl)cc1	i	-0.1	-2	4	0.68	-6.4	-1.5
O=C(NNC(=S)Nc1ccc(Cl)cc1Cl)c1ccncc1	i	6.5	5	67	0.67	-3.1	7.2
COc1ccc(OC)c(C(C(=O)NCc2ccco2)N(C(=O)Cn2nnc3ccccc32)C2CC2)c1 (centres undefined)	.	-0.6	0	.	0.71	-2.8	0.9
CCCn1c2ccccc2c2nnc(SCC(=O)Nc3c(C)n(C)n(-c4ccccc4)c3=O)nc21	i	8.4	-10	7	0.69	-0.5	-1.8
CC(=O)Nc1ccc(NC(=O)c2sc(-c3ccccc3)nc2C)cc1	i	1.1	2	.	0.67	9.2	-1.1
Cc1ccc(S(=O)(=O)C2(C(=O)Nc3ccc4c(c3)OCO4)CC2)cc1	i	3.2	3	.	0.74	4.6	0.9
O=c1[nH]c(=O)c2[nH]c(=O)n(-c3ccccc3)c2[nH]1	i	-0.3	29	.	0.68	.	-7.0
Cc1ccc(CN2CCN(CC3CC4C=CC3C4)CC2)cc1 (centres undefined)	.	-5.8	-1	-1	0.74	1.5	0.2

Single records (already shown). Screens in order: FGF22 binding | UCH37 inh | B2AR ag | ALR inh | E coli growth | LANA-H2B inh | HNF4A DNA FP
Entry for CC(=O)Nc1ccc(NC(=O)c2sc(-c3ccccc3)nc2C)cc1 → i | 1.1 | 2 | . | 0.67 | 9.2 | -1.1
Entry for C=CCN1CN(S(=O)(=O)c2cccc(Cl)c2)c2nc3ccccc3nc21 → i | -9.2 | 3 | -10 | 0.72 | 9.7 | 9.1

With a hit mark in ALR inh (from the list above):
| SMILES | FGF22 binding | UCH37 inh | B2AR ag | ALR inh | LANA-H2B inh | HNF4A DNA FP |
| --- | --- | --- | --- | --- | --- | --- |
| O=C(c1cc(-c2ccc(O)cc2)on1)N1CCCc2ccccc21 | i | 4.4 | -17 | 99* | 5.0 | -4.6 |

More structures.
SMILES	FGF22 binding	UCH37 inh	B2AR ag	ALR inh	E coli growth	LANA-H2B inh	HNF4A DNA FP
CN(C)P(=NC(=O)COc1ccc(Cl)cc1Cl)(N(C)C)N(C)C	i	2.7	-2	-14	0.65	5.0	0.7
O=C(/C=C/c1ccco1)Nc1nc(-c2ccccc2)cs1	i	-2.9	-7	0	0.67	-3.2	-0.8
Cc1nc2ccccn2c1/C(O)=C1\C(=O)C(=O)N(CCN2CCOCC2)C1c1ccncc1 (centres undefined)	.	5.3	1	3	.	-0.4	-2.0
N#Cc1ccc(C2=CC(=O)C[C@H](c3ccc(F)cc3)C2)cc1	i	2.4	-8	4	0.74	0.9	-2.4
O=C(NCCc1ccc2c(c1)OCCO2)c1ccccc1F	i	0.7	4	-1	0.69	0.0	2.7
O=C(COc1ccc(F)cc1Br)N1CCN(c2ncccn2)CC1	i	-2.6	-4	-11	0.68	0.2	4.3
O=C(/C=C/c1ccccc1)c1ccccc1O	.	1.9	22	19	.	-0.3	-3.0
Cc1cc(C(=O)CSc2nncs2)c(C)n1-c1ccc2c(c1)OCO2	.	1.2	-1	-3	0.61	7.8	1.4
O=C(Nc1nccs1)c1cc2sccc2n1Cc1ccc(F)cc1	.	-7.0	0	-2	0.69	2.8	8.0
O=[N+]([O-])c1cccc(/C=C/c2nc(C=Nc3ccccc3)c(O)o2)c1	i	8.4	2	-1	0.78	3.0	7.5
COC(=O)Nc1ccc(S(=O)(=O)N2CCC(C)CC2)cc1	.	2.3	1	-2	0.65	-0.5	0.3
Cc1cccc(NC(=O)c2cccc(C(=O)Nc3cccc(C)c3)n2)c1	i	-13	-5	-3	0.7	1.2	1.5
CS(=O)(=O)c1ccc2nc(NC(=O)C3=NN(c4ccccc4)C(=O)CC3)sc2c1	i	7.8	7	.	0.65	-2.4	1.7
CCCCc1cn([C@@H](CCCCN)C(=O)N2CCNCC2)nn1	i	5.1	-1	.	.	1.3	-26
CN(CCOc1ccccc1)C(=O)c1ccc2c(=O)n3c(nc2c1)CCC3	i	-3.4	-5	3	0.64	-3.8	-1.0
Cc1ccc(C)c2nc(Cl)c(C#N)cc12	i	-52	-4	-6	0.63	-0.8	1.1
Cn1cc(C(c2ccccc2OCC(=O)O)c2cn(C)c3ccccc23)c2ccccc21	i	-0.8	6	99*	0.65	-0.4	0.2
Nc1c(C(=O)Nc2ccc(Br)cc2)sc2nc(-c3ccco3)ccc12	.	-80	22	0	0.66	5.1	9.4
O=[N+]([O-])c1cccc(NN=Nc2ccccc2)c1	i	2.8	3	-10	0.62	1.3	2.3
O=C(c1cc2ccccn2n1)N1CCN(c2ccccn2)CC1	i	1.1	13	-2	0.78	0.7	-1.3
Cc1cc(C)n(CCCN2CCC(C(=O)Nc3cccc(-c4cccc(F)c4)c3)CC2)n1	i	0.1	41	-14	0.7	1.0	0.2
Cc1ccc(S(=O)(=O)N(C)c2ccc(C(=O)Nc3ccccc3C(=O)N3CCOCC3)cc2)cc1	i	0.8	-2	.	0.67	1.0	0.2
Cc1cc(NC(=O)CCC(=O)N(Cc2ccco2)C(C(=O)NCC2CCCO2)c2ccncc2)no1 (centres undefined)	i	3.4	-4	1	0.69	7.4	4.5
O=C(COc1ccc([N+](=O)[O-])cc1)NC(=O)NC1CCS(=O)(=O)C1 (centres undefined)	.	6.3	-7	.	0.68	.	0.0
O=c1ccn(-c2ccccc2)[nH]1	i	-1.5	-5	31	0.71	-8.1	0.2
CCOC(=O)Nc1ccc2c(c1)N(C(=O)CCN(CC)CC)c1ccccc1CC2	i	3.3	-8	3	0.68	3.0	1.9
O=C(O)c1cc([N+](=O)[O-])c(N2CCCC2)c([N+](=O)[O-])c1	.	8.4	-4	10	0.72	5.2	4.4
COc1ccccc1NC(=O)Cn1cc(C(=O)C2CC2)c2ccccc21	i	0.6	1	-5	0.67	1.3	4.4
CC1=NN(C(=O)Cc2ccc([N+](=O)[O-])cc2)C(O)(c2cccnc2)C1 (centres undefined)	.	2.5	-1	4	0.73	1.2	3.0
Cc1cc(C)nc(SCc2ccc(C(=O)NN=C3C4CC5CC(C4)CC3C5)cc2)n1	.	3.9	-10	-10	0.7	-3.8	-1.1
CN(CC1CCOCC1)C(=O)CC1C(=O)NCCN1C/C=C/c1ccccc1 (centres undefined)	i	2.8	-4	-3	.	-4.1	-1.8
CCc1nccn1S(=O)(=O)c1cc(OC)ccc1OC	i	.	-4	1	.	-0.7	-2.5
COc1ccc(-n2nc3cc(C)c(NC(=S)NC(=O)c4ccccc4C)cc3n2)cc1	.	-7.3	4	-2	0.75	3.6	2.2
COc1ccc(CN2CCN(C(=O)c3ccco3)CC2)cc1OC	i	1.0	1	3	0.73	4.0	2.8
COc1cc2c(cc1OC)C(COc1ccc(F)cc1)NCC2 (centres undefined)	i	4.6	-1	-3	0.7	5.9	0.2
O=C1c2cccc3cccc(c23)C(=O)N1CCCN(C(=O)c1cccs1)c1cccc(F)c1	.	-13	-2	-3	0.7	-1.3	1.3
CSc1nnc(CCNC(=O)OC(C)(C)C)o1	i	1.8	0	-6	0.66	3.6	-3.1
CC(C)(C)OC(=O)N1CCC(c2cc(-c3cccs3)n[nH]2)CC1	i	1.4	3	-14	0.65	-4.7	2.0
O=C(NCc1ccc(-c2csnn2)cc1)c1cc(Cl)cc(Cl)c1	i	5.9	-7	4	0.72	0.2	-1.1
COC(=O)c1sccc1NC(=O)c1c(F)c(F)c(F)c(F)c1F	i	2.5	18	32	0.6	-7.8	-8.3
Cc1oc(-c2ccc(Cl)cc2)nc1CN1CCCN(C(=O)c2ccco2)CC1	i	-0.3	-8	-2	0.66	-0.2	5.5
COc1ccc(N(CC(=O)NC2CCCC2)C(=O)CCC(=O)Nc2cc(C)on2)c(OC)c1	.	-0.7	-2	-8	0.76	4.6	-0.6
Cc1ccc2nc(NC(=O)COC(=O)c3ccccn3)sc2c1	i	0.7	-2	0	0.69	-3.3	1.5
Cc1ccc(S(=O)(=O)N2CCCC2C(=O)OCc2nc3ccccc3s2)cc1 (centres undefined)	.	-1.4	-6	-2	0.7	-4.1	5.0
Cc1ccccc1NC(=O)Cc1nc(COC(=O)c2ccc(O)cc2O)cs1	i	-0.8	10	3	0.66	0.2	3.0
COc1ccc(-c2c[n+]3c(n2-c2ccc(C)cc2)CCCCC3)cc1	i	2.7	7	-4	0.7	-1.8	4.4
Cc1nc(N)ncc1Sc1ccccc1	i	5.3	-6	-5	0.66	0.1	-2.6
Cc1ccccc1C(C)NC(=O)COC(=O)Cn1cc(C(F)(F)F)ccc1=O (centres undefined)	i	0.5	17	.	0.63	.	-0.9
COc1cc(CCC(=O)Nc2ccc(S(=O)(=O)N3CCCC3)cc2)cc(OC)c1OC	i	0.0	3	.	0.71	.	-0.1
CCc1ccc2c(c1)C(=O)C(=O)N2CC(=O)Nc1ccc(NC(=O)c2ccccn2)cc1	i	4.2	22	2	0.73	-0.4	-0.1

(next part)
SMILES	FGF22 binding	UCH37 inh	B2AR ag	ALR inh	E coli growth	LANA-H2B inh	HNF4A DNA FP
O=C(c1ccc(Br)s1)N1CCc2ccccc2C1	i	2.1	-11	0	0.67	-6.7	0.8
CCc1ccc2oc(-c3ccc(NC(C)=O)cc3)nc2c1	i	-66	-2	96*	0.63	0.3	1.1
Cc1cccc(NS(=O)(=O)c2ccc(NS(=O)(=O)c3cccs3)cc2)c1	i	2.9	19	5	0.71	-5.8	-2.4
O=C(CSc1nnc(-c2ccc(C(F)(F)F)cn2)s1)c1ccccc1	i	1.6	-3	-9	0.69	6.1	2.4
CC(C)OC(=O)c1cc(=O)[nH]c2ccccc12	.	-34	-12	-3	0.69	2.4	0.7
Nc1nc(-c2ccccc2)nn1C(=O)c1ccco1	i	-2.0	1	.	0.71	-8.5	-2.0
CSCC[C@H](NC(=O)OC(C)(C)C)C(=O)N1CCC(C(=O)N[C@@H](C)C(=O)NC(C)c2ccccc2)CC1 (some centres undefined)	i	0.1	-5	-1	0.72	-0.8	3.1
Cn1c(=O)c2c(nc(NCCCO)n2Cc2cccc(C(F)(F)F)c2)n(C)c1=O	.	0.8	-4	32	0.69	14	0.8
COc1cc(/C=N/NC(=O)Cc2ccc(Br)cc2)cc(OC)c1O	i	.	5	23	.	1.9	-0.9
CC(C)CNC(=O)CSc1nc2nn(-c3ccccc3)c(=O)c-2c2n1CCCCC2	i	4.0	-16	46	0.73	-1.1	4.7
CC(=O)c1cccc(NS(=O)(=O)c2ccc(-c3cnc(C4CC4)o3)cc2)c1	i	6.4	-7	-2	0.68	-1.9	0.9
